FGF22 binding: binders of recombinant human FGF22 by thermal shift | 340,000 tested, 1.5% active | calls only at 9.99 µM | AID 651658 | SYPRO orange fluorescence; percent of sucrose octasulfate shift, DMSO zero;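 active = melting point raised past a set limit in the mean and every replicate; three in four hits are not shown here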
Target sequence (Q9HCT0 whole entry, looked up): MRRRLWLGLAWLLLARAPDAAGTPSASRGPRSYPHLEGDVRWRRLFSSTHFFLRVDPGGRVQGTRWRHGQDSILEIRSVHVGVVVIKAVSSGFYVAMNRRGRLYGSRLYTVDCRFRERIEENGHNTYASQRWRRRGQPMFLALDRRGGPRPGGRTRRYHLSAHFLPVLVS
Calls only; i = inactive; + = active, no number.

SMILES | FGF22 binding
CCCNC(=O)C[C@@H]1CC[C@@H]2[C@H](COc3ccc(NC(=O)c4ccc(C(F)(F)F)cc4)cc3C(=O)N2C)O1 | i
CCCNC(=O)C[C@H]1CC[C@@H]2[C@H](COc3ccc(NS(=O)(=O)c4ccccc4C)cc3C(=O)N2C)O1 | i
COCC(=O)N1C[C@H]2[C@@H](c3ccccc31)[C@H](CO)N2C(=O)Nc1ccccc1F | +
O=C(NCc1ccccc1)[C@]1(Cc2ccccc2)N=C(c2ccc(OCCCO)cc2)O[C@@H]1c1ccccc1 | i
O=C(C[C@@H]1C=C[C@@H](NC(=O)c2ccc(F)cc2)[C@@H](CO)O1)NCc1ccncn1 | i
O=C1O[C@H](c2ccccc2)[C@H](c2ccccc2)N2[C@H]1[C@@H](C(=O)NC[C@H](O)c1ccccc1)[C@]1(C(=O)Nc3ccc(C#CC4=CCCCC4)cc31)[C@H]2c1ccc(OCCO)cc1 | i
C[C@@H]1CN([C@H](C)CO)C(=O)c2cc(-c3ccc(C#N)cc3)cnc2O[C@H]1CN(C)CC1CCCC1 | i
CNC(=O)C[C@H]1CC[C@@H]2[C@@H](COc3ccc(NC(=O)c4ccccc4OC)cc3C(=O)N2C)O1 | i
COc1cccc(NC(=O)N2CC3(C2)[C@@H](c2ccccc2)[C@@H](CO)N3C(C)=O)c1 | i
C[C@@H]1CN([C@H](C)CO)C(=O)c2cc(NC(=O)Cc3cn(C)c4ccccc34)ccc2O[C@H]1CN(C)Cc1ccc(Cl)c(Cl)c1 | i
C[C@H]1CN([C@@H](C)CO)S(=O)(=O)c2ccc(C3=CCCCC3)cc2O[C@@H]1CN(C)Cc1cncnc1 | i
C[C@@H](NC(=O)[C@H]1[C@H](CO)[C@H]2Cn3c(ccc(-c4ccncc4)c3=O)[C@H]2N1C)c1ccccc1 | i
C[C@H](CO)N1C[C@H](C)[C@@H](CN(C)C(=O)C2CCCCC2)Oc2ncc(/C=C/c3ccccc3)cc2C1=O | i
O=C1N[C@H](Cc2ccccc2)COCn2nncc2CC[C@H]1Cc1ccccc1 | i
Cc1ccccc1-c1ccc([C@@H]2[C@H]3CN(C(=O)c4ccncc4)CC(=O)N3[C@H]2CO)cc1 | i
C[C@H]1CN([C@@H](C)CO)C(=O)Cc2cc(NS(=O)(=O)c3cccs3)ccc2O[C@@H]1CN(C)C(=O)Nc1ccc(C(F)(F)F)cc1 | i
C[C@@H]1CN([C@@H](C)CO)C(=O)c2cccc(NS(=O)(=O)c3cccs3)c2O[C@H]1CN(C)Cc1ccncc1 | i
C[C@@H]1CN([C@@H](C)CO)C(=O)Cc2cc(NC(=O)C3CC3)ccc2O[C@H]1CN(C)CC1CCCCC1 | i
[N-]=[N+]=Nc1ccccc1C[C@]1(C(=O)N2CCOCC2)N=C(c2ccc(OCCCO)cc2)O[C@H]1c1ccccc1 | i
COc1ccc(NC(=O)Nc2cccc3c2O[C@@H](CN(C)S(C)(=O)=O)[C@@H](C)CN([C@H](C)CO)C3=O)cc1 | i
CO[C@@H]1CN(C)C(=O)c2cc(NC(=O)C3CCCCC3)ccc2OC[C@H](C)N(Cc2nccs2)C[C@@H]1C | i
OC[C@H]1[C@H](c2ccc(/C=C/c3ccccc3)cc2)[C@@H]2CN(Cc3ccncc3)CCCCN12 | i
COc1ccc2c3c(n(C)c2c1)[C@@H](CO)N(C(C)=O)CC31CN(C(=O)C2CC2)C1 | i
Cc1noc(C)c1NC(=O)N(C)C[C@H]1OCCCC[C@@H](C)Oc2ccc(NC(=O)CCC(F)(F)F)cc2C(=O)N([C@H](C)CO)C[C@@H]1C | i
CC(C)CC#Cc1ccc2c(c1)O[C@H](CN(C)S(C)(=O)=O)[C@H](C)CN([C@H](C)CO)S2(=O)=O | i
C[C@H](CO)N1C[C@H](C)[C@H](CN(C)C(=O)c2ccncc2)OCCCC[C@H](C)Oc2ccc(NC(=O)c3ccccc3)cc2C1=O | i
COCC#Cc1cnc2c(c1)C(=O)N([C@H](C)CO)C[C@@H](C)[C@H](CN(C)C(=O)C1CCOCC1)O2 | i
COc1cccc(-c2ccc3c(c2)[C@@H]2[C@@H](CCN2S(=O)(=O)c2ccc(F)cc2)[C@@H](CO)N3C)c1 | i
C[C@@H]1OC(C2CCCCC2)N(C)[C@H]2C[C@H]3c4[nH]c5cccc(-c6ccccc6)c5c4CCN3C(=O)[C@@H]12 (stereo partly drawn) | i
O=S(=O)(c1ccc(-c2ccccc2)cc1)N1C[C@@H]2N[C@H](C1)C2c1ccc(-c2ccccc2)cc1 (stereo partly drawn) | i
CC(C)C#Cc1ccc([C@H]2[C@@H](CO)N3CCCCN(S(=O)(=O)Cc4ccccc4)C[C@@H]23)cc1 | i
CN(C)C(=O)C[C@@H]1CC[C@@H]2[C@H](COC[C@H](O)CN2C(=O)C2CCOCC2)O1 | i
C[C@@H]1CN([C@@H](C)CO)C(=O)Cc2cc(NC(=O)Nc3ccccc3)ccc2O[C@@H]1CN(C)S(=O)(=O)c1ccc(F)cc1 | i
C[C@@H]1CN([C@H](C)CO)C(=O)Cc2cc(NS(=O)(=O)c3cn(C)cn3)ccc2O[C@@H]1CN(C)C(=O)Nc1ccc(F)cc1 | i
C[C@@H]1CN([C@H](C)CO)C(=O)Cc2cc(NC(=O)CCN3CCOCC3)ccc2O[C@H]1CN(C)C(=O)NC1CCCCC1 | i
C[C@@H]1CN([C@@H](C)CO)S(=O)(=O)c2ccc(-c3ccc(C(=O)N(C)C)cc3)cc2O[C@H]1CN(C)C(=O)Nc1ccccc1F | i
C[C@H]1CN([C@@H](C)CO)S(=O)(=O)c2ccc(-c3cncnc3)cc2O[C@@H]1CN(C)Cc1ccccn1 | i
COc1ccc(NC(=O)N(C)C[C@@H]2Oc3ccc(NC(=O)Nc4ccc(F)cc4)cc3CC(=O)N([C@@H](C)CO)C[C@H]2C)cc1 | i
COC[C@@]12C[C@H]3C(=O)N(Cc4ccccc4)C(=O)[C@H]3[C@@H](CO1)/C2=C\c1ccccc1 | i
COc1ccc(NC(=O)N[C@@H]2CC[C@@H](CCn3cc(-c4ccccc4F)nn3)O[C@H]2CO)cc1 | i
O=C(Nc1ccc(F)cc1)N1C[C@@H]2[C@H](c3ccccc31)[C@@H](CO)N2C(=O)c1ccccc1 | i
CCCNC(=O)Nc1ccc2c(c1)OC[C@@H](C)N(Cc1ccc(-c3ccccn3)cc1)C[C@H](C)[C@H](OC)CN(C)C2=O | i
Cc1noc(C)c1NC(=O)Nc1ccc2c(c1)CC(=O)N([C@@H](C)CO)C[C@H](C)[C@H](CN(C)S(=O)(=O)c1ccc(F)cc1)O2 | i
CC(C)C#Cc1ccc([C@H]2[C@@H](CO)N3C(=O)CN(C(=O)C4CCCCC4)C[C@H]23)cc1 | i
CN1C(=O)c2cc(NC(=O)c3cccc(F)c3)ccc2OC[C@@H]2O[C@@H](CC(=O)NC3CCC3)CC[C@H]21 | i
CO[C@H]1CN(C)C(=O)c2cc(NC(=O)Nc3cccc(F)c3)ccc2OC[C@@H](C)N(C)C[C@H]1C | i
COc1ccc(CN2[C@H](CO)[C@H]3c4ccccc4N(C(=O)Nc4ccc(F)cc4)C[C@H]32)cc1 | i
COc1ccc(C#Cc2cnc3c(c2)C(=O)N([C@H](C)CO)C[C@@H](C)[C@H](CN(C)C(=O)CC2CC2)O3)cc1 | i
COc1ccc(S(=O)(=O)N(C)C[C@@H]2OCCCC[C@@H](C)Oc3ccc(NS(=O)(=O)c4ccccc4)cc3C(=O)N([C@@H](C)CO)C[C@@H]2C)cc1 | i
COc1ccc(-c2ccc3c(c2)O[C@H](CN(C)CC2CCOCC2)[C@H](C)CN([C@H](C)CO)S3(=O)=O)cc1 | i
O=C(C[C@H]1CC[C@@H](NS(=O)(=O)c2ccc(F)cc2)[C@@H](CO)O1)NCCN1CCCCC1 | i
C[C@@H]1CN([C@H](C)CO)C(=O)c2cc(NC(=O)Cc3ccccc3)ccc2O[C@H]1CN(C)S(=O)(=O)c1ccccc1 | i
CO[C@H]1CN(C)C(=O)c2cc(NS(=O)(=O)c3ccccc3F)ccc2OC[C@H](C)NC[C@H]1C | i
Cn1cnc(S(=O)(=O)N2CCCCN3[C@H](CO)[C@@H](c4ccc(-c5ccccc5)cc4)[C@@H]3C2)c1 | i
COc1ccc(CN(C)C[C@H]2OCCCC[C@H](C)Oc3ccc(NC(=O)Cc4ccccc4)cc3C(=O)N([C@@H](C)CO)C[C@@H]2C)cc1 | i
Cc1ccc(S(=O)(=O)N[C@@H]2CC[C@@H](CCNC(=O)C3CC3)O[C@@H]2CO)cc1 | i
C[C@H](CO)N1C[C@H](C)[C@H](CN(C)S(=O)(=O)c2cccs2)OCc2cn(nn2)CCCC1=O | i
C[C@@H]1CN([C@@H](C)CO)S(=O)(=O)c2ccc(C#Cc3ccncc3)cc2O[C@H]1CN(C)S(=O)(=O)c1ccc(F)cc1 | i
CN(C)C(=O)c1cccc(-c2ccc(C3[C@H]4CNC[C@@H]3N4S(=O)(=O)Cc3ccccc3)cc2)c1 (stereo partly drawn) | i
COc1ccc(S(=O)(=O)N[C@H]2C=C[C@@H](CC(=O)O)O[C@@H]2CO)cc1 | i

Next part:
SMILES | FGF22 binding
N#C[C@H]1[C@@H](c2ccccc2C2=CCCC2)[C@@H](CO)N1C(=O)Cc1ccncc1 | i
C[C@@H]1CN([C@H](C)CO)S(=O)(=O)c2ccc(-c3cccnc3)cc2O[C@@H]1CN(C)Cc1cncnc1 | i
C[C@@H]1CN([C@H](C)CO)C(=O)Cc2cc(NC(=O)CCCN(C)C)ccc2O[C@H]1CN(C)C(=O)Nc1ccc2c(c1)OCO2 | i
COc1ccc2c3c(n(C)c2c1)[C@@H](CO)N(Cc1ccccc1Cl)CC31CN(C(C)=O)C1 | i
N#C[C@@H]1[C@@H](c2ccc(-c3cccnc3)cc2)[C@H](CO)N1C(=O)C1CC1 | i
Cc1cc(C(=O)Nc2cccc3c2O[C@@H](CN(C)C(=O)Nc2ccccc2)[C@@H](C)CN([C@@H](C)CO)C3=O)n(C)n1 | i
C[C@H]1CN([C@@H](C)CO)C(=O)c2cc(NC(=O)c3ccncc3)ccc2O[C@@H]1CN(C)S(=O)(=O)c1ccc(Cl)cc1 | i
Cc1ccc(-c2cnc3c(c2)C(=O)N([C@H](C)CO)C[C@@H](C)[C@H](CN(C)CC2CCOCC2)O3)cc1 | i
C[C@@H]1CCCCO[C@H](CN(C)CC2CCCCC2)[C@@H](C)CN([C@H](C)CO)C(=O)c2cc(NS(=O)(=O)c3ccccc3)ccc2O1 | i
C[C@H]1CN([C@@H](C)CO)C(=O)c2cccc(NC(=O)Nc3ccc4c(c3)OCO4)c2O[C@@H]1CN(C)CC1CCCCC1 | i
C[C@H](CO)N1C[C@H](C)[C@@H](CN(C)C(=O)C2CC2)Oc2cc(C#C[C@@H](C)O)ccc2S1(=O)=O | i
C[C@@H]1CN([C@H](C)CO)C(=O)c2cc(NC(=O)NC3CCCCC3)ccc2O[C@H]1CN(C)S(=O)(=O)c1ccc(Cl)cc1 | i
CCCNC(=O)C[C@@H]1C[C@H]2c3cc(NC(=O)Nc4ccc(F)cc4)ccc3O[C@H]2[C@@H](CO)O1 | i
CO[C@H]1CC[C@H]2CCOc3c(C#N)cccc3C(=O)N(C)C[C@H](C)C(=O)N(C)C[C@H]1O2 | i
C[C@@H]1CN([C@H](C)CO)C(=O)c2cc(NC(=O)CCC(F)(F)F)ccc2O[C@@H](C)CCCCO[C@@H]1CN(C)C(=O)CCC(F)(F)F | i

A draw from above in order of number of heavy atoms, high to low.
SMILES | FGF22 binding
C[C@@H]1CN([C@H](C)CO)C(=O)c2cc(NC(=O)CCC(F)(F)F)ccc2O[C@@H](C)CCCCO[C@@H]1CN(C)C(=O)CCC(F)(F)F | i
C[C@H]1CN([C@@H](C)CO)C(=O)c2cccc(NC(=O)Nc3ccc4c(c3)OCO4)c2O[C@@H]1CN(C)CC1CCCCC1 | i
C[C@H]1CN([C@@H](C)CO)C(=O)c2cc(NC(=O)c3ccncc3)ccc2O[C@@H]1CN(C)S(=O)(=O)c1ccc(Cl)cc1 | i
Cc1ccc(-c2cnc3c(c2)C(=O)N([C@H](C)CO)C[C@@H](C)[C@H](CN(C)CC2CCOCC2)O3)cc1 | i
CCCNC(=O)C[C@@H]1C[C@H]2c3cc(NC(=O)Nc4ccc(F)cc4)ccc3O[C@H]2[C@@H](CO)O1 | i
COc1ccc2c3c(n(C)c2c1)[C@@H](CO)N(Cc1ccccc1Cl)CC31CN(C(C)=O)C1 | i
N#C[C@@H]1[C@@H](c2ccc(-c3cccnc3)cc2)[C@H](CO)N1C(=O)C1CC1 | i

Another view of part of the listing above:
C[C@H]1CN([C@@H](C)CO)S(=O)(=O)c2ccc(C3=CCCCC3)cc2O[C@@H]1CN(C)Cc1cncnc1
  FGF22 binding: i

C[C@@H](NC(=O)[C@H]1[C@H](CO)[C@H]2Cn3c(ccc(-c4ccncc4)c3=O)[C@H]2N1C)c1ccccc1
  FGF22 binding: i

C[C@H](CO)N1C[C@H](C)[C@@H](CN(C)C(=O)C2CCCCC2)Oc2ncc(/C=C/c3ccccc3)cc2C1=O
  FGF22 binding: i

O=C1N[C@H](Cc2ccccc2)COCn2nncc2CC[C@H]1Cc1ccccc1
  FGF22 binding: i

(more compounds)
SMILES | FGF22 binding
C[C@@H]1CN([C@@H](C)CO)S(=O)(=O)c2ccc(C#Cc3ccc(F)cc3)cc2O[C@H]1CN(C)C(=O)NC1CCCC1 | i
O=C(N[C@H]1CC[C@H](CCn2cc(C3(O)CCCC3)nn2)O[C@@H]1CO)C1CCOCC1 | i
CC(C)NC(=O)Nc1ccc2c(c1)C(=O)N([C@H](C)CO)C[C@@H](C)[C@H](CN(C)Cc1ccncc1)OCCCC[C@@H](C)O2 | i
Cc1cccc(S(=O)(=O)N[C@H]2CC[C@H](CCNC(=O)c3cnccn3)O[C@@H]2CO)c1 | i
CN(C)CC(=O)Nc1ccc2c(c1)[C@@H]1C[C@H](CC(=O)NCc3cccnc3)O[C@@H](CO)[C@@H]1O2 | i
O=C(C[C@H]1C[C@H]2c3cc(NC(=O)Nc4ccc(F)cc4)ccc3O[C@H]2[C@H](CO)O1)NCC1CC1 | i
CC(C)NC(=O)N(C)C[C@@H]1OCc2cnnn2CCCC(=O)N([C@@H](C)CO)C[C@@H]1C | i
COC(=O)C[C@H]1CC[C@@H]2[C@H](COC[C@@H](O)CN2S(=O)(=O)c2ccccc2OC)O1 | i

An excerpt; count on the stated rates, not on these rows.
